# Screens: PubChem BioAssay, Fisher Drug Discovery Resource Center
# NPYLR7 agonist – mosquito NPYLR7 agonism; 270,000 tested, 0.15% active; activation, % at 10 µM; HEK293T NPYLR7/Galpha15, GCaMP6s calcium fluorescence; in the data active = activation above about 40%;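 also: 0% = vehicle and 100% = reference agonist at the receptor; some compounds past the cut are filed as inactive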
# NPYLR7 agonist max-min – also measured in NPYLR7 agonist; calls as there; activation, %; measured here: Max-Min RFU normalised activation; some inactives read as strong as hits;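 span of the calcium signal over five minutes; 0% = vehicle and 100% = native peptide agonist; compound fluorescence can raise it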
# * marks the source's active call; other numbers are inactive results; & = joins results of further samples. This is a subset; count on the stated rates, not on these rows.
smiles | NPYLR7 agonist | NPYLR7 agonist max-min
COc1ccc(CNC(=O)c2ccc(-c3ccc4c(c3)OCO4)s2)c(OC)c1 | 21 | 13
Cc1ccc(-c2nc(N)sc2CC(=O)O)cc1 | 1 | 19
Cc1cc(C=O)c(C)n1-c1ccc(Cl)c(C(F)(F)F)c1 | 0 | -1
CCn1nc(C)c(C(=O)NCCC2CCCN(C)C2)c1C (stereo not given) | 26 | 9
O=C1CN(C(=O)c2cnn(-c3cccc(C(F)(F)F)c3)c2-n2cccc2)CCN1 | 3 | 1
CC(=O)N1CCc2cc(NC(=O)Cc3ccc(NS(=O)(=O)c4ccc(F)cc4)cc3)ccc21 | 3 | 10
Cc1cc(Cl)cc2sc(NCCN(C)C)nc12 | 2 | 1
O=C(C1COc2ccccc21)N1CC2CCC1C2 (stereo not given) | -2 | -7
C=C(Br)CNC(=O)N(CC(C)C)CC(C)C | 2 | 4
COC(=O)[C@@H]1CS(=O)(=O)[C@H](C)N1C(=O)C(F)(F)F | 2 | 2
CCn1ccc(C(=O)N(CCN2CCOCC2)c2nc3cc(C)c(C)cc3s2)n1 | 2 | 0
O=S(=O)(c1ccccc1OC(F)(F)F)N1CCN(C(c2ccccc2)c2ccc(F)cc2)CC1 (stereo not given) | 25 | 12
CCc1[nH]n(C)c(=O)c1C1=C(N(C)Cc2ccccc2)C(=O)N(c2ccc(OC)cc2OC)C1=O | 27 | 25
CC(Sc1nnc(-c2ccccc2F)n1C1CC1)C(=O)c1ccc2c(c1)NC(=O)CO2 (stereo not given) | -3 | -5
CCCc1nc(N2CCCN(C(=O)c3cc(Cl)cc(Cl)c3)CC2)c2c(C)nn(-c3ccc(F)cc3)c2n1 | 3 | 3

# Given field by field: part of the list above.
O=S(=O)(c1ccccc1OC(F)(F)F)N1CCN(C(c2ccccc2)c2ccc(F)cc2)CC1 (stereo not given)
  NPYLR7 agonist: 25 | NPYLR7 agonist max-min: 12
CCc1[nH]n(C)c(=O)c1C1=C(N(C)Cc2ccccc2)C(=O)N(c2ccc(OC)cc2OC)C1=O
  NPYLR7 agonist: 27 | NPYLR7 agonist max-min: 25

# (list continues)
smiles | NPYLR7 agonist | NPYLR7 agonist max-min
CNC(=O)CN1CCN(C(=O)C2CC2c2ccccc2Cl)CC1=O (stereo not given) | 1 | -25
CC=CC=CC(=O)OCC1=C(C(=O)OCC)C(CC)NC(=O)N1 (stereo not given) | 1 | 8
Cc1nnc(NC(=O)CSc2nc3c([nH]c4ccccc43)c(=O)n2-c2ccc(Cl)cc2)s1 | 1 | 30
CCOc1cccc(CN2CCC(Cc3ccc(C(F)(F)F)cc3)CC2)c1 | 2 | 7
O=S(=O)(NC1CCSc2ccccc21)N1CCCCCC1 (stereo not given) | 3 | 2
Cc1ccc(S(=O)(=O)Oc2ccc(-c3nc4ccc(Br)cn4c3NC3CCCCC3)cc2)cc1 | -2 | 12
Cc1ccc2nc(NC(=O)CN3CCSC3=O)sc2c1 | 0 | -3
Cc1n[nH]c(C)c1S(=O)(=O)N1CCc2ccccc2C1 | 7 | 3
Fc1cc2nc(-c3cc(Cl)c4c(c3)OCO4)[nH]c2cc1F | 10 | 8
CC(C)CNC(=O)C1(C)CCCCCN1C(=O)c1ccncc1 (stereo not given) | -7 | -7
O=C(NC1CCc2ccccc21)c1ccc(-c2cc(-c3ccc(Cl)cc3Cl)[nH]n2)cc1 (stereo not given) | 29 | 15
COC(C)C(=O)Nc1cc(C)c(NC(=O)C(C)OC)cc1C (stereo not given) | -1 | -5
CCOC(=O)c1c(NC(=O)C(C)C)c(-c2ccc(OC)c(OC)c2)cn1Cc1ccccc1 | 0 | -3
CC(CNc1ncccc1C#N)N1CCc2ccccc2C1 (stereo not given) | 2 | 1
Cc1ccc(C(=O)N(C)c2ccccc2S(=O)(=O)N(C)C)o1 | 1 | 14

# Looked up above:
# In NPYLR7 agonist max-min, CC(C)CNC(=O)C1(C)CCCCCN1C(=O)c1ccncc1 (stereo not given) shows -7
# In NPYLR7 agonist max-min, COC(C)C(=O)Nc1cc(C)c(NC(=O)C(C)OC)cc1C (stereo not given) shows -5
# In NPYLR7 agonist, CCOc1cccc(CN2CCC(Cc3ccc(C(F)(F)F)cc3)CC2)c1 shows 2
# In NPYLR7 agonist, Cc1ccc(C(=O)N(C)c2ccccc2S(=O)(=O)N(C)C)o1 shows 1
# In NPYLR7 agonist, CC=CC=CC(=O)OCC1=C(C(=O)OCC)C(CC)NC(=O)N1 (stereo not given) shows 1
# In NPYLR7 agonist max-min, CC(CNc1ncccc1C#N)N1CCc2ccccc2C1 (stereo not given) shows 1

# Next section
smiles | NPYLR7 agonist | NPYLR7 agonist max-min
Nc1ccc(-c2ccc(C(=O)N3CCC(CCc4ccccc4)CC3)cn2)cn1 | -2 | -6
COCCCN1C(=O)CC(CC(=O)N2CCN(C3CCCC3)CC2)(c2ccccc2Cl)C1=O (stereo not given) | 11 | -6
COc1ccc(C2=N/C(=C\C=C\c3ccccc3)C(=O)O2)cc1 | 0 | -4
CCc1c(C(=O)N2CCC(Cn3cc(CO)nn3)CC2)csc1C | 7 | 3
CN(C)c1ccc(CC2Nc3cccc(C(=O)O)c3C2=O)cc1 (stereo not given) | -1 | -4
CCc1[nH]n(-c2ccc(Cl)cc2)c(=O)c1C1=C([n+]2cccc(C)c2)C(=O)N(C2CCCCC2)C1=O | -3 | 3
CCC1(c2ccccc2)NC(=O)N(Cc2c(C#N)c(C)nn2-c2ccccc2)C1=O (stereo not given) | 5 | 5
CC(=O)Nc1c[n+](-c2ccccc2)no1 | 1 | 6
Nc1nc(NCc2ccccc2)nc(N2CCCCC2)c1[N+](=O)[O-] | -2 | -4
Cc1cccc(-c2nc(C)c(C(C)C)c(N3CCN(C(=O)c4ccco4)CC3)n2)c1 | -2 | 7
COCC(=O)N1CCCN(Cc2ccc(-c3ccccn3)cc2)CC1 | -2 | 12
CC1CN(C(C)CNC(=O)C2CC=CCC2)CC(C)O1 (stereo not given) | 6 | 4
COc1ccccc1NCCC(=O)Nc1ccc(F)cc1C | 4 | 1
Cn1c(C(=O)NNC(=O)c2ccco2)c(Br)c2ccccc21 | 7 | 4
Cc1ccccc1CN1CCN(S(=O)(=O)c2cccc(C#N)c2)CC1 | 0 | -1
Cc1cccc(N)c1-c1nc2ncccc2o1 | -1 | 1
CCNC(=O)N1CC[C@@]2(C1)[C@@H](Oc1ccccn1)CN(C)S2(=O)=O | 3 | 10
CC(C(=O)Nc1cc(Cl)ccc1Cl)N1CCN(C(=O)c2cccs2)CC1 (stereo not given) | -5 | -5
Cc1ccc(-c2ccc(OCCNC(=O)c3ccc(S(=O)(=O)N(C)C)cc3)nn2)cc1 | -4 | -4
Cn1cc(C(=O)N2CCCCC2)c2[nH]c(=O)n(Cc3ccccc3)c(=O)c21 | 4 | 2
CC(C(=O)Nc1cc(=O)[nH]c2nc(CCc3ccccc3)nn12)N1C(=O)c2ccccc2C1=O (stereo not given) | 1 | 38
Nc1nnc(SCC(=O)N2CCc3ccccc32)s1 | -1 | -2
C/C=C(\C)C(=O)N1CCC(c2cn(CCCCC)c3ccccc23)CC1 | 4 | 0
CC1CCC(NC(=O)CN2CCCS(=O)(=O)CC2)CC1 (stereo not given) | 7 | 5
CN1C(=S)N(c2ccc3c(c2)CCC3)C(=O)/C1=C/c1ccc(N(C)C)cc1 | 4 | 0
O=C(c1nn2cc(Br)cnc2c1Cl)N1CCOCC1 | -15 | -18
C#CCN(CC(=O)N1CCCc2ccccc21)C1CCc2ccccc21 (stereo not given) | 3 | 2
COC(=O)c1ccc(N2CCN(C(=O)CC3C(=O)NCCN3Cc3ccccc3)CC2)cc1 (stereo not given) | 0 | -3
CCCc1nn(CC(N)=O)c(CCC)c1CC | -2 | -2
CC(C)Oc1ccc(CN2CCC2(C)C(=O)Nc2cccc3cccnc23)cc1 (stereo not given) | -4 | 0

# In a second layout: entries from further up.
# Values in the order – NPYLR7 agonist	NPYLR7 agonist max-min
- C/C=C(\C)C(=O)N1CCC(c2cn(CCCCC)c3ccccc23)CC1
 : 4	0
- CC1CCC(NC(=O)CN2CCCS(=O)(=O)CC2)CC1 (stereo not given)
 : 7	5
- CN1C(=S)N(c2ccc3c(c2)CCC3)C(=O)/C1=C/c1ccc(N(C)C)cc1
 : 4	0
- O=C(c1nn2cc(Br)cnc2c1Cl)N1CCOCC1
 : -15	-18
- C#CCN(CC(=O)N1CCCc2ccccc21)C1CCc2ccccc21 (stereo not given)
 : 3	2
- COC(=O)c1ccc(N2CCN(C(=O)CC3C(=O)NCCN3Cc3ccccc3)CC2)cc1 (stereo not given)
 : 0	-3

# Other entries.
smiles | NPYLR7 agonist | NPYLR7 agonist max-min
C=c1c(C#N)c2[nH]c(N)c(C#N)c(C)c-2/c1=C\c1ccc(Br)o1 | 3 | 11
COc1ccc(NC(=O)C2CCN(C(=O)CCNC(=O)Nc3c(F)c(F)c(F)c(F)c3F)CC2)cc1 | 13 | 23
COc1ccc2nc(N(CCCN3CCOCC3)C(=O)c3cc(C)nn3C)sc2c1 | 0 | 0
O=C(c1cc(=O)c(OCc2ccc(F)cc2)c[nH]1)N1CCN(c2cccc(C(F)(F)F)c2)CC1 | 1 | 0
CC(=O)c1cccc(CN2CCN(Cc3ccsc3)C(CCO)C2)c1 (stereo not given) | 3 | 0
O=[N+]([O-])c1ccccc1S(=O)(=O)NCC1CCC(CNCC2CCc3ccccc3C2)CC1 (stereo not given) | -11 | -20
CCCCCn1c(-c2ccccc2)n[nH]c1=S | -1 | -1
Cc1ccccc1Nc1nnc(SCc2cc(=O)n3cc(Cl)ccc3n2)s1 | 11 | 4
Cc1cc(Cl)c(C)c(S(=O)(=O)NCCN(C)C)c1Cl | 9 | 8
COc1ccc(CC(=O)N2CCN(c3ccc(Cl)cc3)CC2)cc1OC | 17 | 9
O=S(=O)(Oc1ccc(-c2nc3ccccn3c2NC2CCCCC2)cc1)c1ccc(F)cc1 | 24 | 32
CCOc1cc(C(=O)Oc2cc(C)[nH]c(=O)c2[N+](=O)[O-])cc(OCC)c1OCC | 9 | 6
COc1cc(C)cc(OC)c1OCC(=O)NC12CC3CC(CC(C3)C1)C2 | 11 | 3
CCOC(=O)c1c(NC(=O)Nc2ccccc2)sc2c1C(C(=O)OCC)CCC2 (stereo not given) | -6 | -4
Cn1cnnc1SCC(=O)Nc1ccc(OC(F)(F)F)cc1 | -4 | -7
CC(C)Nc1ccnc(-c2ccc3c(c2)OCO3)n1 | 6 | 4
CC1CC1c1ccc(C(=O)O)o1 (stereo not given) | 11 | 9
COCc1ccc(CN2CCCC(N3CCN(c4cccc(C(F)(F)F)c4)CC3)C2)o1 (stereo not given) | 19 | 7
CC(=O)c1ccccc1OS(=O)(=O)c1cc(Cl)ccc1Cl | 5 | 4
CN1CC2(CCN(C(=O)c3[nH]cnc3-c3ccccc3)C2)OC1=O (stereo not given) | -2 | -2
CC1=NN(C(=O)COc2ccccc2C)C(O)(c2ccc(Cl)cc2)C1 (stereo not given) | -2 | -2
O=C(Nc1cccc(Cl)c1)N1CCSC1c1ccccc1F (stereo not given) | 16 | 10
COCc1cc(C)nc(N/N=C\c2c(O)ccc3ccccc23)c1C#N | -4 | 6
CCOC(=O)C1(CCCc2ccccc2)CCN(C(=O)c2c(CC)noc2C)CC1 | 2&8 | -1&9
O=S(=O)(NCCc1csc2nc(-c3ccccc3)nn12)c1ccc(F)cc1 | -5 | -1
Cc1ccc(CNC(=O)c2c(C)noc2-c2cccnc2)o1 | 8 | 11
COc1cc(S(=O)(=O)NCc2ccc3c(c2)OCO3)c(C)cc1Br | 2 | 7
COc1ccc([C@@H](C)NCc2c(C(=O)N3CCCC3)nc3ccccn23)cc1 | 5 | 9
Cc1ccc(-c2cc3c(=O)n(Cc4cc(C)ccc4C)ccn3n2)cc1 | -1 | -3
O=C1C2C(C(=O)N1c1ccc3c(c1)OCO3)C1C=CC2C12CC2 (stereo not given) | 3 | 1
CCCc1nc(N2Cc3cnn(CCO)c3C2)c2cnn(C)c2n1 | 6 | 2
CC(=O)c1cccc(NC(=O)c2cn(C)c3c(=O)n(-c4ccccc4)c(=O)[nH]c23)c1 | 2 | 0
Cc1cc2c(cc1C)C(=O)CC1(CCN(Cc3cccnc3)CC1)O2 | 7 | 5
CCCC(C)NC(=O)CSCc1cc(-c2ccc(C)cc2)no1 (stereo not given) | 3 | 3
CCOC(=O)CCC(=O)N1CCN(c2cc(S(=O)(=O)NCCOC)ccc2OC)CC1 | 3 | -1
C=CCOc1cccc(C2c3c(oc4cc(C)c(C)cc4c3=O)C(=O)N2c2nccs2)c1 (stereo not given) | 9 | 6
CCOC(=O)N1CCC(NC(=O)c2ccc3oc(-c4cccc(F)c4)nc3c2)CC1 | -5 | -8
COC(=O)C1=C(C)NC(=O)NC1c1ccccc1OC(C)C (stereo not given) | -7 | -11
CC(C)c1ccc(CC(=O)N2CCC2(C)C(=O)NC2Cc3ccccc3C2)cc1 (stereo not given) | 10 | 8
Cc1ccc(F)c(NC(=O)c2cc(C)c(C)c(S(=O)(=O)N(C)C)c2)c1 | 3 | 0
C#CCOc1c(CC=C)cc(C=O)cc1OCC | -10 | -18
Oc1oc(-c2ccccc2)nc1C=Nc1cccc(C(F)(F)F)c1 | -4 | -8
COc1ccc(C2=NC(=Cc3cc(Cl)c4c(c3)OCCO4)C(=O)O2)cc1OC | 2 | -3
O=C(NCC1CCCO1)C1CCN(C2CCN(C(=O)c3ccccc3)CC2)CC1 (stereo not given) | 2 | 5
Cc1ccsc1CN(Cc1ccccc1)C(=O)CN(CC1CCCO1)C(=O)c1ccc([N+](=O)[O-])cc1Cl (stereo not given) | -6 | -4
O=C(C=Cc1cccc2cccnc12)c1c(-c2ccccc2)c2ccccc2[nH]c1=O | -1 | 7
O=C(c1ccccc1Br)N1CCSC1c1ccc(OCc2ccccc2)cc1 (stereo not given) | -5 | 2
S=C(Nc1ccccn1)NC1CC2CCC1C2 (stereo not given) | 26 | 12
CC(C)CNC(=O)CN1C(=O)NC(C)(c2ccc(F)cc2)C1=O (stereo not given) | 6 | 7
